Marburg entry inh: blocks Marburg virus binding to or entry into cells. actives 1.8% (n = 300,000). Potency, µM (series often up to 37.8 µM), for inactives: at the top dose activity change, negative = inhibition, actives largely listed as inhibitors. AID 540276. Marburg virus pseudotyped entry inhibition, cell reporter; control for the full effect not named in the record; about a third of the inactives were read at about 46 µM; active = well fitted inhibition curve with a large enough effect; inconclusive = small, poorly fitted or top-dose-only effect, or effect the other way; inactive = flat fitted curve, though single readings scatter; tested in HEK293 cells; about a fifth of its hits are not listed in these tables; note: % is set by controls: 0 for no effect and ±100 for the full control effect; luciferase read-out
NS1 inh: influenza NS1 inhibition; S. cerevisiae slowed by influenza A NS1, growth recovery by OD600; actives 0.4% (n = 270,000); Potency, µM (series often up to 46.1 µM), inactives show top-dose activity, positive = more growth; active means well fitted rising curve with a large enough effect; inconclusive means small, poorly fitted or top-dose-only effect; inactive means no such curve, though single readings can be large or run the other way; note: nearly all actives have a fitted effect of over 50% in size
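S. cerevisiae expressing influenza A NS1, grown in glucose, washed, then diluted 1:100 into pH 6.0 -URA galactose medium with 23 nl compound. Growth recovery read as OD600; NS1-free strain serves as control.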
Cruzain Triton: inhibitors of Trypanosoma cruzi cruzain with detergent | P25779 | purified cruzain, Z-FR-AMC fluorescence, 0.01% Triton | Potency, µM, for inactives: max response, negative = inhibition, usual class: inhibitors | actives 0.43% (n = 200,000);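 note: plate controls were neutral wells for no effect and buffer without enzyme for full effect; nearly all actives have a fitted effect of over 40% in size; top concentration of the series not given in the record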
Target sequence (P25779 123-467 limits assumed): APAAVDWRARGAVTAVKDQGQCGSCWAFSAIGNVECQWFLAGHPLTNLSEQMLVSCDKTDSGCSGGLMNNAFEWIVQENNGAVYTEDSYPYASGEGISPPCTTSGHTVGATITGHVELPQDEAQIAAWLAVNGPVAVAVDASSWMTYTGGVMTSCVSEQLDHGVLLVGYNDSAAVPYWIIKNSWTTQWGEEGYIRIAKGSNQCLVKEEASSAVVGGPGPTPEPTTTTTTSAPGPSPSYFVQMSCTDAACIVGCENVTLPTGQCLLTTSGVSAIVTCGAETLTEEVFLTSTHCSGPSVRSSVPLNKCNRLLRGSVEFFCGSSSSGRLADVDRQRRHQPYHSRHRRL
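Detergent-containing run (0.01% Triton X-100) in acetate buffer pH 5.5 with 5 mM DTT: enzyme at 1.5 nM final, 15 min compound preincubation at room temperature, then 2 uM Z-FR-AMC substrate. Activity taken as 60 s fluorescence increase at 360/450 nm.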
RE007 growth inh: less growth of the S. pombe RE007 Vpr strain. S. pombe RE007 Vpr strain, BacTiter-Glo ATP luminescence, 24 h; control for the full effect not named in the record. Potency, µM (series often up to 92.2 µM), for the others: top-dose activity change, negative = less growth. AID 651644. actives 0.21% (n = 360,000); active = well fitted falling curve with a large enough effect; inconclusive = small, poorly fitted or top-dose-only effect; inactive = no such curve, though single readings can be large or run the other way;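 note: % is set by controls: 0 for no effect and ±100 for the full control effect; nearly all actives have a fitted effect of over 50% in size; the assay follows cell death caused by Vpr and the record does not say whether a fall means rescue or toxicity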
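Fission yeast RE007 carrying one integrated HIV-1 vpr copy, seeded at OD 0.01 in PMG+AL medium with 23 nL pinned compound. Grown 24 h at 30 degrees; viability read by BacTiter-Glo luminescence after 5 min.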
Lassa entry inh: blocks Lassa virus binding to or entry into cells. Lassa virus pseudotype entry inhibition, cell reporter; control for the full effect not named in the record. Potency, µM (titrated, usually from 37.9 µM), for the others: at the top dose activity change, negative = inhibition, hits mostly inhibitors. actives 1.2% (n = 300,000). AID 540256; active means well fitted inhibition curve with a large enough effect; inconclusive means small, poorly fitted or top-dose-only effect, or effect the other way; inactive means flat fitted curve, though single readings scatter; tested in HEK293 cells; note: % is set by controls: 0 for no effect and ±100 for the full control effect; nearly all actives have a fitted effect of over 50% in size; luciferase read-out
SARS PLpro yeast: inhibitors of SARS-CoV papain-like protease in yeast; S. cerevisiae expressing SARS-CoV PLpro, growth rescue; control for the full effect not named in the record; Potency, µM (titrated, usually from 32.9 µM), for the others: at the top dose activity, positive = growth rescue; actives 0.19% (n = 330,000); AID 485353; active means well fitted rising curve with a large enough effect; inconclusive means small, poorly fitted or top-dose-only effect; inactive means no such curve, though single readings can be large or run the other way; note: 0% is about no effect; nearly all actives have a fitted effect of over 55% in size; growth read by luminescence after 48 h
Cruzain inh noDet: cruzain (T. cruzi) inhibition without detergent | purified cruzain, Z-FR-AMC fluorescence, no detergent | P25779 | actives 2.3% (n = 200,000) | Potency, µM, for inactives: max response, negative = inhibition, actives largely listed as inhibitors;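 note: plate controls were enzyme without inhibitor for no effect and buffer without enzyme for full effect; nearly all actives have a fitted effect of over 40% in size; top concentration of the series not given in the record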
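Detergent-free condition (0.00005% Triton X-100) in acetate buffer pH 5.5 with DTT. 1.5 nM enzyme and compound were pre-mixed 15 min, then 2 uM Z-FR-AMC substrate added; reaction progress from fluorescence change between first and third reads (60 s).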
2A StopGo: lowers the luciferase signal of an FMDV 2A StopGo reporter; human cells with a luciferase reporter of 2A StopGo recoding; control for the full effect not named in the record; actives 1.2% (n = 410,000); Potency, µM (highest dose often 57.9 µM), inactives show at the highest dose signal change, negative = less light; AID 1159524; active = well fitted falling curve with a large enough effect; inconclusive = small, poorly fitted or top-dose-only effect; inactive = no such curve, though single readings can be large or run the other way; tested in HEK293T cells; note: % is set by controls: 0 for no effect and ±100 for the full control effect; nearly all actives have a fitted effect of over 45% in size; luciferase light after 4 h
* hit, by the source's call; u = inconclusive; x = not tested or not shown; & = joins results of further samples; [ ] = another dose, or the depositor's remark. Unless noted, calls come from the whole dose curve; as a rule, active = well fitted curve in the direction sought with a large enough effect; inconclusive = small, poorly fitted or top-dose-only effect, or another doubt; inactive = no such curve, though single readings can be large; an effect the other way counts as inactive or inconclusive. Potency is the fitted concentration of half-maximal effect.

SMILES	Marburg entry inh	NS1 inh	Cruzain Triton	RE007 growth inh	Lassa entry inh	SARS PLpro yeast	Cruzain inh noDet	2A StopGo
CCCCNS(=O)(=O)c1ccc(S(=O)(=O)NCc2ccncc2)cc1	-21.2%	2.5%	-3.0%	15.4%	-20.0%	6.8%	0.5%	x
O=[N+]([O-])c1ccc(-c2nn(-c3ccccc3)cc2/C=N/n2c(-c3ccncc3)n[nH]c2=S)cc1	u	-0.9%	x	-4.2%	15.6%[46.1 µM]	-3.8%	x	-25.9%
O=[N+]([O-])c1ccccc1N(S(=O)(=O)c1ccccc1)S(=O)(=O)c1ccccc1	u	x	x	1.1%	u	x	x	-22.4%
Cc1ccc(S(=O)(=O)/N=C(/c2ccccc2)N2CCOCC2)cc1	u	4.9%	x	11.1%	8.2%	-0.5%	x	-0.8%
CC(=O)Nc1ccc(NC(=O)c2nccnc2C(=O)O)cn1	x	1.1%	x	0.7%	x	1.2%	x	-9.8%
CCOC(=O)CN1C(=O)S/C(=C/c2ccc(C)o2)C1=O	1.3%	-20.5%	x	-6.4%	23.7%	-2.8%	x	54.0%[activator]
Cc1ccc(C(=O)NNC(=O)CSc2nnc3ccccn23)cc1	13.1%[46.1 µM]	x	x	5.7%	-1.6%[46.1 µM]	-0.4%	x	1.2%
CCC(=O)Nc1sc(C(=O)N2CCCCC2)c(C)c1C#N	15.1%	1.4%	5.3%	-1.3%	8.4%	-5.7%	-0.2%	x
COc1ccc(S(=O)(=O)Nc2c(NC3CCCCC3)c3ccccc3oc2=O)cc1Cl	x	11.9%	x	-5.4%	x	4.2%	x	-12.2%
O=C(NCCN1CCCC1)c1ccccc1Cl	x	2.6%	x	2.0%	x	0.2%	x	-22.2%
O=C1C(Cc2ccccc2)C(c2ccccc2)N1c1ccccc1 (stereo not given)	u	11.8%	-0.3%	16.8%	-16.6%	-4.1%	7.7%	-25.8%
Cc1ccc(S(=O)(=O)NC(C(=O)Oc2ccc3c(C(F)(F)F)cc(=O)oc3c2)c2ccccc2)cc1 (stereo not given)	u	-44.3%	u	-5.6%	1.2%	-1.6%	-12.7%	2.4%
COc1cc(C(=O)Nc2cc(C)c(O)c(-c3nc4ccccc4s3)c2)cc(OC)c1OC	13.0%[46.1 µM]	x	1.5%	x	5.8%[46.1 µM]	x	1.7%	35.7%[activator]
COc1ccc(NC(=O)c2ncn[nH]2)cc1	4.0%	-3.7%	2.0%	-2.2%	-4.4%	3.7%	0.4%	18.3%
COc1ccc(-n2nc(C(=O)NCC(=O)N3CCN(c4ccccn4)CC3)c3ccccc3c2=O)cc1Cl	9.8%	x	x	-13.2%	12.7%	-5.7%	x	-0.2%
Cn1nnc(NC(=S)NC(=O)c2ccccc2)n1	24.0%	-4.1%	x	-29.0%	7.8%	-2.6%	x	34.2%[activator]
CSc1nc2sc3c(c2c(=O)[nH]1)CCC(C)C3 (stereo not given)	22.7%	-34.6%	1.6%	-5.5%	-1.1%	0.0%	u	25.4%
COc1ccc(C2C(C(=O)Nc3cccc(C)n3)c3ccccc3C(=O)N2C)cc1OC (stereo not given)	u	-9.1%	4.4%	-0.6%	-12.9%	14.7%	0.7%	-20.9%
CCC(C)NC(=O)/C=C/c1cccs1 (stereo not given)	u	4.9%	-4.3%	11.9%	5.6%	-15.2%	9.0%	10.3%
CCOC(=O)N1CCN(C(=O)CNS(=O)(=O)c2c(C)cc(C)cc2C)CC1	2.9%[46.1 µM]	-12.6%	x	15.1%	x	-1.5%	x	13.1%
O=C(O)c1ccc(Cn2cnc3scc(-c4ccccc4)c3c2=O)cc1	-16.6%[46.1 µM]	2.2%	x	-5.6%	2.6%[46.1 µM]	-0.1%	x	2.2%
CCOC(=O)CC(c1ccc([N+](=O)[O-])cc1)n1c(C)ccc1C (stereo not given)	u	6.7%	x	-2.6%	2.3%	2.6%	x	-16.5%
CN(C)S(=O)(=O)c1cc(C(=O)NCc2ccccc2)c(Cl)cc1Cl	-17.6%	3.9%	x	7.9%	-2.7%	-0.2%	x	-12.9%
COc1ccc(C(=O)NC2CCN(C(=S)Nc3ccccc3C)CC2)cc1	15.1%[46.1 µM]	2.4%	x	2.6%	11.6%[46.1 µM]	0.8%	x	20.9%
COc1ccc(S(=O)(=O)N(C(=O)C(C)C)c2ccc3oc(=O)sc3c2)cc1	1.8%	u	-12.6%	-0.1%	3.2%	3.3%	-7.3%	0.0%
O=C(Nc1ccccc1NC(=O)c1csnn1)c1csnn1	x	-2.4%	x	0.3%	x	0.7%	x	-0.5%
CSc1ccc(CN(C)CC(=O)NC(=O)NC(C)(C)C)cc1	-0.3%[46.1 µM]	-3.1%	2.2%	-1.5%	-15.8%	2.6%	-2.7%	-20.8%
Cc1nc(-c2coc3cc(O)c(C)cc3c2=O)cs1	u	-55.0%	3.5%	-25.9%	u	-10.4%	-4.3%	-71.5%
CCN1CCN(c2csc3ccc(Cl)cc3c2=O)CC1	x	x	-5.5%	x	u	x	4.4%	-14.3%
Cc1ccc(C(=O)NNC(=O)C2CCN(S(=O)(=O)c3ccc(C)cc3)CC2)cc1	11.8%[46.1 µM]	-1.7%	x	-11.6%	11.8%	-3.6%	x	-15.3%
COc1cc2c(cc1OC)CN(C(=O)/C=C/c1cc(OC)c(OC)c(OC)c1)CC2	-20.7%	-8.5%	x	1.9%	u	-0.9%	x	-18.6%
COc1ccccc1-c1nnc(C2CCN(C(=O)c3cccc(C)c3)CC2)o1	3.7%[46.1 µM]	x	-1.6%	x	3.1%[46.1 µM]	x	-1.5%	10.5%
COc1ccc(-n2ncc3c(=O)n(CC(=O)NC(C)C)cnc32)cc1	x	0.1%	x	4.7%	x	-2.4%	x	0.1%
Cc1ccc(S(=O)(=O)NCc2ccc(C(=O)NCCCN3CCN(C)CC3)cc2)cc1	18.4%	-4.9%	5.8%	6.1%	20.2%	0.8%	1.7%	8.6%
COc1cc(NC(=O)CSc2nc3ncnc(N)c3[nH]2)c(C(=O)O)cc1OC	-2.1%[46.1 µM]	-3.8%	x	-12.3%	2.5%[46.1 µM]	5.3%	x	13.5%
COCCCNC1=C(Cl)C(=O)c2ccccc2C1=O	-21.8%[46.1 µM]	-9.5%	x	u	25.1%[46.1 µM]	-0.4%	x	4.1%
Nc1ccc(C(=O)OCC(=O)Nc2ccc([N+](=O)[O-])cc2C(F)(F)F)cc1	21.5%	5.1%	-6.2%	-27.3%	17.1%	15.2%	-7.5%	u
COc1cccc(C(CCc2cc(OC)c(OC)c(OC)c2)NC(C)=O)c1 (stereo not given)	-12.5%	x	x	10.7%	-19.0%	x	x	-9.7%
Cc1nc(N2CCOCC2)[nH]c(=O)c1[N+](=O)[O-]	x	-3.8%	x	17.4%	x	0.1%	x	-17.3%
O=S(=O)(Nc1ccn(-c2ccccc2)n1)c1ccc(Br)cc1	5.7%	-29.0%[9.22 µM]	-8.2%	6.2%	u	-25.9%	u	x
CC(NC(=O)C1CCN(S(=O)(=O)c2ccc(F)cc2)CC1)c1ccccc1 (stereo not given)	0.7%[46.1 µM]	x	u	x	6.6%[46.1 µM]	x	1.4%	-22.8%
CCCCN(C)S(=O)(=O)c1cc2c3c(c1)CCC(=O)N3CCC2	x	-0.8%	x	-0.7%	x	5.2%	x	2.2%
Cc1ccc(C(C)C)c(OCC(=O)NNC(=O)C2CSC3(C)CCC(=O)N23)c1 (stereo not given)	0.0%	x	x	0.2%	-4.4%	-0.6%	x	-16.1%
COCC1CCN(Cc2cn[nH]c2-c2cc(OC)c(OC)c(OC)c2)CC1	-7.4%[46.1 µM]	3.0%	x	1.0%	7.1%	-2.3%	x	8.4%
N/C(=N\OC(=O)CC1CCCCC1)c1cccc(Br)c1	x	-63.2%	x	4.8%	x	-14.8%	x	51.4%[activator]
O=C(O)C1=CCCNC1	u	-7.6%	2.7%&-1.2%&2.4%	6.0%	-8.0%	x	9.5%&7.0%&7.6%	-16.1%&-4.5%&0.0%&-11.8%
COc1ccccc1C(=O)NNC(=O)c1ccc2ccccc2c1	x	-10.2%	x	-18.0%	x	-7.9%	x	0.0%
COc1cc(/C=c2\sc3n(c2=O)CCCN=3)ccc1O	16.6%	-65.4%	-4.0%	-24.3%	16.8%	-14.5%	-1.8%	46.3%[activator]
CC(c1ccccc1)N1CC(C(=O)N2CCN(Cc3ccc(C#N)cc3)CC2)CC1=O (stereo not given)	-17.6%[46.1 µM]	x	x	8.8%	u	1.9%	x	u
CC1CC(C)CN(C(=O)Cc2c(C(=O)O)[nH]c3ccc(Cl)cc23)C1 (stereo not given)	5.1%	x	x	-9.9%	3.5%[46.1 µM]	-5.0%	x	7.2%
Nc1nonc1-n1nnc(C(=O)N/N=C/c2ccccc2)c1CSc1ccccc1	7.9%[46.1 µM]	4.6%	x	-0.4%	11.8%	1.9%	x	6.0%
COCC(=O)N1CCC(Oc2ccc(C(=O)NCc3cnc(C)cn3)cc2)CC1	12.7%[46.1 µM]	3.1%	x	14.6%	-12.8%	-2.5%	x	4.4%
Nc1nncn1C(=O)CCCN1C(=O)c2ccccc2C1=O	14.4%	u	0.0%	9.2%	13.4%	16.1%	-6.1%	2.2%
O=C(Nc1cc(-c2ccccc2)[nH]n1)c1ccccc1	u	-48.4%	x	3.7%	u	-7.9%	x	30.1%[activator]
CCOC(=O)N1CCN(C(=O)c2ccc3c(c2)N(Cc2ccccc2F)C(=O)c2ccccc2S3(=O)=O)CC1	3.5%[46.1 µM]	x	0.0%	x	-1.7%[46.1 µM]	x	-8.7%	4.7%
CCCCNC(=O)CSc1nc2cc3c(cc2c(=O)n1Cc1ccc(C(=O)NCCc2ccc(OC)c(OC)c2)cc1)OCO3	x	x	0.1%	x	15.6%[46.1 µM]	x	0.3%	-5.9%
O=C(COC(=O)CCC(=O)c1ccc(Cl)cc1)NCC1CCCO1 (stereo not given)	-0.2%	-2.6%	1.7%	-13.9%	0.3%	-1.8%	1.3%	-8.5%
Cc1c(C(=O)N2CCCc3ccccc32)oc2ccc(S(=O)(=O)N3CCOCC3)cc12	u	-30.6%	1.7%	-1.1%	u	4.2%	u	-6.2%
Cc1ccc(-c2cc(C(=O)NCc3cccs3)no2)cc1	12.8%	9.4%	3.4%	2.8%	3.9%	-2.3%	u	89.7%[activator]

The order is random; 4.7% or so of the library scored in one or more.
